Source: PubChem BioAssay (several laboratories)
Mtb H37Rv = M. tuberculosis H37Rv growth inhibitors, H37Rv strain (AID 1626); M. tuberculosis H37Rv growth inhibition; higher % means a stronger effect; one-dose inhibition, % at 10 µM; IC50 in µM for titrated hits; actives 0.95% (n = 220,000);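 active = confirmed in a dose series; inconclusive = inhibition above 80% but not taken into the dose series; inactive = below 80% or under 30% at every dose of the series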;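 also: bacteria incubated seven days before Alamar blue readout; 0% = bacteria only wells and 100% = bacteria with antibiotic wells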
Arbovirus anti = arbovirus infection inhibition; actives 0.37% (n = 200,000); AID 1251; inhibition, % at 10 µM; arbovirus infection cell-based antiviral screen;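 active = inhibition from about 30%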;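 also: bluetongue infection of BSR cells; cell survival read as ATP light after 72 h; 0% = infected wells without compound and 100% = uninfected wells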
Mtb bLac sens = beta-lactam sensitization of Mtb H37Rv; inhibition, % at 25 µM; actives 0.27% (n = 330,000); M. tuberculosis H37Rv growth with meropenem, percent inhibition; hits of this screen are not shown here;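 active = about 74% or more and at least 40 points above the plate without the antibiotic, then above 30% in a dose series; inconclusive = first-round hits that could not be retested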;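 also: growth measured after seven days incubation then overnight dye step; 0% = bacteria only wells and 100% = bacteria with antibiotic; twin plates without the antibiotic show which effects depend on it; some results filed as inactive read as strong as hits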
YopH inh = blocks Yersinia enterocolitica YopH tyrosine phosphatase; actives 0.16% (n = 140,000); fluorescence Ex485/Em525; AID 898; inhibition, %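 (about 10 µM by stock and volumes)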;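 active = inhibition of 50% or more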;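 also: controls were vehicle for no effect and minimum signal wells for full effect; inactives centre near -20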
RecA splice inh = inhibitors of M. tuberculosis RecA intein splicing. P9WHJ3. inhibition, %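 (about 9 µM by stock and volumes)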. cell-free RecA intein splicing, fluorescence. actives 0.75% (n = 290,000). AID 2221; in the data active = inhibition above about 30%; inconclusive = no clear call, values can overlap the other calls;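 also: 0% = vehicle wells and 100% = reference inhibitor control wells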
Target sequence (P9WHJ3 whole entry, looked up, canonical isoform): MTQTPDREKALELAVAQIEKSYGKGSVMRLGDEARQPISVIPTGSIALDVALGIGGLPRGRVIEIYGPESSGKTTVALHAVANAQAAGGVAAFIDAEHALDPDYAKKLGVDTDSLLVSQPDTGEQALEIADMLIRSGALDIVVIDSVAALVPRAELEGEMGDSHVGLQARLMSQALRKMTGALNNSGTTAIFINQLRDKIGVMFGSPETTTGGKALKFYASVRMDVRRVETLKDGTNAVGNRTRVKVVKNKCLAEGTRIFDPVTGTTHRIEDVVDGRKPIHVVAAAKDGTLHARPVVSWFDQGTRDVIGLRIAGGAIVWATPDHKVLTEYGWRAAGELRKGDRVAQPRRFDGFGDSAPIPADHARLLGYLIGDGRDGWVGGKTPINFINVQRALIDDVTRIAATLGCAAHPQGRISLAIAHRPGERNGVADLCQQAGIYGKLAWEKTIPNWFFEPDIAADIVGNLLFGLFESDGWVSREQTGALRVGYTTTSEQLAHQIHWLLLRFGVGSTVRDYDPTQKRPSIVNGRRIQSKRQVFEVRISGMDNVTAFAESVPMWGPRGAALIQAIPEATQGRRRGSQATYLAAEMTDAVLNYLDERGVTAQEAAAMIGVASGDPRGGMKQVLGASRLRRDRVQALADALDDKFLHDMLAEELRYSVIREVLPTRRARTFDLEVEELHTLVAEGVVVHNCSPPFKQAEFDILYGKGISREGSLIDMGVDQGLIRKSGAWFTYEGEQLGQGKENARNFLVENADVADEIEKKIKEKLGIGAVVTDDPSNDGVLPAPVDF
Arbovirus anti repeat = also measured in Arbovirus anti; calls as there; inhibition, %; measured here: 10K subset replicate screen; many hits read low in the repeat;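 first of two repeat runs on a subset; 0% = infected and 100% = uninfected wells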
Active calls of the source: *; ? = inconclusive; . = no result given; & = joins results of further samples. The list is partial (hit frequency here may not be typical).

SMILES | Mtb H37Rv | Arbovirus anti | Mtb bLac sens | YopH inh | RecA splice inh | others
Cc1[nH]c2c(C)cccc2c(=O)c1CN1CCCCCC1 | . | . | 0 | . | -4.3
Cc1sc2ncnc(Sc3nnnn3-c3ccccc3)c2c1C | ? | -29 | 64 | -24 | 34*
CCn1nnc(NC(=O)c2cc(Cl)c(OC)c(Cl)c2)n1 | -14% | -2 | 2 | -15 | 1.7
O=C(NN=C1C2CC3CC(C2)CC1C3)c1ccncc1 | ? | 7 | 98 | -23 | -2.4
COc1cccc(C(=O)Nc2cccc3c2ccc2cccn23)c1 | 5% | -7 | 5 | . | 2.2
c1ccc2c3c(cc(N4CCOCC4)c2c1)OC1(N2CCOCC2)CCCCC1O3 (stereo not drawn) | -12% | -1 | -3 | -24 | 2.3
O=C(CN1C(=O)CCC1=O)Nc1nc2c(F)cc(F)cc2s1 | -4% | 0 | 5 | -11 | -0.2 | Arbovirus anti repeat=0
Cc1ccc(C2NCCS2)cc1 (stereo not drawn) | . | -6 | -7 | . | -4.7
O=C(CCc1cccc(Cl)c1)NC1CCCN(Cc2ccccc2F)C1 (stereo not drawn) | . | . | -3 | . | -0.1
CCOC(=O)CC1C(=O)NCCN1C(=S)Nc1ccccc1 (stereo not drawn) | -24% | 13 | -1 | -23 | 1.6
O=C(CNC(c1ccccc1)c1ccccc1)Nc1ccccc1-c1ccccc1 | . | -4 | -5 | -25 | -0.6
COc1ccc(-c2nc3n(n2)C(c2ccncc2)C(C(N)=O)=C(C)N3)cc1 (stereo not drawn) | . | 3 | -6 | -51 | 0.2
CCOC(=O)N1CCN(C(=O)CCCCCn2c(=S)[nH]c3ccsc3c2=O)CC1 | 0% | -7 | -11 | . | .
C=CCc1c(C)nc(C)nc1N/N=C/c1ccccc1 | 3% | 2 | 0 | 8 | 3.7
Cc1ccccc1Cn1ccc(NC(=O)c2cnn3c2NC(c2ccccc2)CC3C(F)(F)F)n1 (stereo not drawn) | 3% | -4 | 5 | -9 | 4.6
O=C1c2ccccc2NC2(CCCC2)N1NS(=O)(=O)c1ccccc1 | 1% | -2 | -2 | . | -5.3
COc1ccc(-c2csc(Nc3ncccc3C)n2)cc1OC | 6% | 41* | . | -15 | 5.0
CCOC(=O)c1ccc(N2C(=O)CC(N3CCOCC3)C2=O)cc1 (stereo not drawn) | -4% | 3 | 3 | -17 | -1.5
O=C(CSc1nnc(COc2ccccc2Cl)o1)NC(=O)NCc1ccco1 | -4% | . | -11 | . | -5.3
Cc1cc(N2CCN(C)CC2)n2nc(-c3ccc(Cl)cc3)nc2n1 | -2% | . | 3 | . | 0.4
CCC(C)(C)n1nnnc1C(c1cc2cc(C)ccc2[nH]c1=O)N1CCCC1 (stereo not drawn) | 0% | 9 | -9 | 26 | -0.8
COc1cccc(CSc2nnc(-c3ccco3)n2C)c1 | -2% | 0 | -24 | 2 | -2.6
Cc1nn(C)cc1CNC(=O)c1cccc(F)c1 | 2% | -3 | -3 | -20 | -1.1
Cn1c(COc2ccc(Br)cc2)nnc1SC1CCc2ccccc2C1=O (stereo not drawn) | -3% | -1 | 2 | -20 | 11
NNC(=O)c1sccc1OCc1ccc(Cl)cc1Cl | -3% | -7 | 3 | . | 10
CC(=O)c1ccc(NC(=O)c2ccc(S(=O)(=O)N3CCCC3)cc2)cc1 | -5% | -14 | 6 | -21 | 9.1
COC(=O)c1nc(-c2ccccc2)oc1N1CCOCC1 | 3% | 4 | -1 | . | .
CCOC(=O)c1c(S(=O)(=O)Nc2ccc(CN3CCC(C)CC3)cc2)c(C)n(C)c1C | . | . | -2 | . | -0.5
Cc1c[n+]([O-])n(-c2ccc(C(=O)O)cc2)n1 | 5% | 7 | 4 | -5 | 0.9
O=C(N/N=C/c1ccc(F)cc1)c1cc[n+]([O-])cc1 | . | . | -8 | . | -3.8
CCOC(=O)C1=C(C)NC(=O)NC1c1ccc(F)cc1 (stereo not drawn) | -6% | -2 | -3 | -19 | .
O=C(N/N=C/C(Br)=C/c1ccccc1)c1cccnc1 | ? | . | 100 | . | 1.7
N=C1C(c2nc3ccccc3s2)=C(O)CN1c1ccccc1 | 3% | -12 | -1 | . | -3.1
N#Cc1ccccc1NC(=O)CN1CCN(Cc2ccccc2)CC1 | . | . | -2 | . | 2.6
COc1ccc(CCN(C(=O)COc2ccccc2)c2nc(-c3ccccc3)cs2)cc1OC | . | 7 | 21 | -31 | 12
CC1CCCCC1NC(=O)Cn1cnc2ccccc2c1=O (stereo not drawn) | -9% | -1 | -11 | -22 | 0.8
COc1cc2ccccc2cc1C(=O)Nc1ccccc1C | . | . | 11 | . | -0.7
O=C(Nc1ccc(Cl)cc1)N1CCSc2ccccc21 | 3% | 0 | 12 | -35 | -1.1
Cn1cc([N+](=O)[O-])c(C(=O)Nc2sc3c(c2C#N)CCC3)n1 | . | . | ? | . | -0.1
CC1(OC(=O)c2cccs2)C(=O)C=C2C=C3CCCN3C=C2C1=O (stereo not drawn) | -16% | . | -10 | . | 1.8
Cc1ccc(S(=O)(=O)CCSc2nc(C)cc(C)c2C#N)cc1 | 1% | 12 | 5 | -6 | 0.1
O=C(COc1ccc([N+](=O)[O-])cc1Cl)N1CCOCC1 | -14% | . | -4 | . | -0.9
COc1ccc([N+](=O)[O-])cc1NC(=O)Cc1ccccc1Cl | 7% | -8 | -7 | -24 | 1.0
COc1cc(OC)c(OC)cc1/C=N/Nc1nc2ccccc2[nH]1 | -3% | . | 4 | . | -2.2
COC(=O)Nc1nn(-c2ccc(OC)cc2)c(=O)c(C#N)c1C | 0% | 2 | 1 | . | 40*
CCCCN(CCCC)S(=O)(=O)c1ccc(NC(=O)Cc2cccs2)cc1 | -6% | -8 | -5 | -27 | .
Cn1cc(CNCc2ccccc2OCC(O)CN2CCc3ccccc3C2)cn1 (stereo not drawn) | 7% | -14 | -7 | . | 1.2
CC1=C(C(=O)NCc2ccc(Cl)cc2)C2(CCC(C)CC2)OC1=O (stereo not drawn) | 5% | . | -6 | . | 1.8
COc1ccc(CNC(N)=O)cc1OC | 6% | 8 | -7 | 11 | -2.2
c1ccc(COCCC2CO2)cc1 (stereo not drawn) | . | . | 5 | . | -1.9

Further results follow.
SMILES | Mtb H37Rv | Arbovirus anti | Mtb bLac sens | YopH inh | RecA splice inh | others
CCOC(=O)N1CCN(c2c(-c3ccccc3)c3cc(Cl)ccc3[nH]c2=O)CC1 | . | 3 | 5 | -16 | -2.7
CN(c1cccc(NC(=O)c2ccc(Cl)c(S(=O)(=O)Nc3ccccc3)c2)c1)S(C)(=O)=O | 2% | 21 | . | -9 | 2.0
COc1ccc(CNC(=O)c2csc(Cc3ccc(Cl)cc3)n2)cc1 | . | -21 | 10 | -9 | 15
CCOc1ccc2nc(NC(=O)c3ccc(OCC4CCCO4)cc3)sc2c1 (stereo not drawn) | ? | -28 | 96 | -41 | 6.0
CCC(=O)NC(Nc1ncc(C)s1)(C(=O)OC)C(F)(F)F (stereo not drawn) | -7% | 10 | -1 | -30 | -1.7
NCCCn1c(C(=O)c2cc(Cl)c(N)c(Cl)c2)c2ccc([N+](=O)[O-])cc2[n+]1[O-] | . | . | 100 | . | 8.3
O=C(CSc1ccccc1)NC1CCCCCC1 | . | . | 2 | . | -3.0
CCOC(=O)COc1c(Br)cc(C2NC(=O)NC(C)=C2C(C)=O)cc1OC (stereo not drawn) | -7% | 3 | 6 | -8 | -0.2
Cc1cccc(OCC(=O)N(C)CCc2ccccn2)c1 | -4% | 4 | -2 | -10 | 2.1
COC(=O)c1nnn(-c2nonc2N)c1CSc1nc2ccccc2o1 | -4% | 5 | 2 | -15 | .
CCN(C(=O)COC(=O)/C(C#N)=C/c1ccc(OC)cc1)C1CCS(=O)(=O)C1 (stereo not drawn) | . | . | -9 | . | 3.6
Cc1nnc(SCC2=C(C(=O)O)N3C(=O)[C@@H](NC(=O)Cn4cnnn4)[C@H]3SC2)s1 | -2%&-14% | 13 | 3&-5 | -33 | -1.3&4.1
CC(C)OC(=O)C(C(=O)C(F)(F)F)c1cc(NS(=O)(=O)c2ccc3ccccc3c2)c2ccccc2c1O (stereo not drawn) | -1% | -16 | -6 | -7 | 16
Cc1ccc(CC2C(=O)N(c3ccc(F)cc3)C(=O)C2C)cc1 (stereo not drawn) | . | . | -1 | . | -0.4
CCOc1ccc(CNC(=O)c2ccccc2NC(=O)C2=CSCCO2)cc1 | . | . | 6 | . | 1.0
OC12CCCCC1C(c1ccccc1)NCC2 (stereo not drawn) | -5% | 2 | 5 | -44 | 0.1 | Arbovirus anti repeat=1
N#C/C(=C\c1cccn1-c1ccccc1)C(=O)NC1CCCCC1 | 12% | -12 | -2 | -18 | 12
CCC/C=C(\CCC)C(NC(=O)c1ccc(C(F)(F)F)cc1)c1ccccc1 (stereo not drawn) | -1% | . | -11 | . | 1.5
O=C(C1CCN(c2nnc(N3CCCC3=O)s2)CC1)N1CCN(c2cccc(C(F)(F)F)c2)CC1 | . | . | 10 | . | -1.3
COCCN1C(=O)/C(=C/c2c(OC)cc(OC)cc2OC)C(=O)N(c2ccccc2)C1=O | 2% | . | 0 | . | 0.5

Among those listed so far, 5 have a CF3 group:
SMILES | Mtb H37Rv | Arbovirus anti | Mtb bLac sens | YopH inh | RecA splice inh | others
Cc1ccccc1Cn1ccc(NC(=O)c2cnn3c2NC(c2ccccc2)CC3C(F)(F)F)n1 (stereo not drawn) | 3% | -4 | 5 | -9 | 4.6
CCC(=O)NC(Nc1ncc(C)s1)(C(=O)OC)C(F)(F)F (stereo not drawn) | -7% | 10 | -1 | -30 | -1.7
CC(C)OC(=O)C(C(=O)C(F)(F)F)c1cc(NS(=O)(=O)c2ccc3ccccc3c2)c2ccccc2c1O (stereo not drawn) | -1% | -16 | -6 | -7 | 16
CCC/C=C(\CCC)C(NC(=O)c1ccc(C(F)(F)F)cc1)c1ccccc1 (stereo not drawn) | -1% | . | -11 | . | 1.5
O=C(C1CCN(c2nnc(N3CCCC3=O)s2)CC1)N1CCN(c2cccc(C(F)(F)F)c2)CC1 | . | . | 10 | . | -1.3

(continued)
SMILES | Mtb H37Rv | Arbovirus anti | Mtb bLac sens | YopH inh | RecA splice inh | others
Cc1cnc(C(=O)OC(C)C(=O)Nc2ccc3c(c2)OCCO3)cn1 (stereo not drawn) | . | . | ? | . | 0.9
CC(=O)Nc1nc2c(s1)C(=O)NCC(C)(C)C2 | -8% | . | -10 | . | -1.0
CCN(CC)C1CCN(C(=O)c2cc(COc3ccccc3SC)on2)C1 (stereo not drawn) | . | . | -2 | . | -1.0
O=C(c1noc2c1CCCC2)N1CCc2c([nH]c3ccccc23)C1c1ccccn1 (stereo not drawn) | 7% | 9 | 2 | . | 3.4
CCN(C(=O)c1ccc(C)c(Br)c1)c1ccccc1 | 6% | 6 | -4 | . | 5.1
COc1ccc(/C=C(/C#N)C(=O)NC2CCCCC2)cc1Br | -3% | 1 | -6 | -7 | 3.0
CN(C)C(=O)CSc1cnc2ccccc2n1 | . | 5 | -2 | . | 0.1
CCNC(=O)CSc1nc2cc([N+](=O)[O-])ccc2n1-c1cccc(C(F)(F)F)c1 | -7% | 0 | 1 | -22 | -3.7
CC/C(=N\Nc1ccccc1)c1c(O)n(-c2ccccc2)c(=O)[nH]c1=O | 47% | . | 89 | . | 1.6
Cc1ccc(-c2ccc(CCC(=O)O)n2Cc2ccco2)cc1 | 3% | 12 | 11 | -2 | 4.2

Part of the list above in order of molecular weight, highest first.
SMILES | Mtb H37Rv | Arbovirus anti | Mtb bLac sens | YopH inh | RecA splice inh | others
CCNC(=O)CSc1nc2cc([N+](=O)[O-])ccc2n1-c1cccc(C(F)(F)F)c1 | -7% | 0 | 1 | -22 | -3.7
CCN(CC)C1CCN(C(=O)c2cc(COc3ccccc3SC)on2)C1 (stereo not drawn) | . | . | -2 | . | -1.0
CC/C(=N\Nc1ccccc1)c1c(O)n(-c2ccccc2)c(=O)[nH]c1=O | 47% | . | 89 | . | 1.6

(cont.)
SMILES | Mtb H37Rv | Arbovirus anti | Mtb bLac sens | YopH inh | RecA splice inh | others
CC1CCN(C(=O)Cn2c(=O)oc3ccccc32)CC1 | -3% | -6 | 2 | -2 | -1.6
Cc1ccc(C(NC(=O)N2CCCC2)C(Cl)(Cl)Cl)cc1F (stereo not drawn) | -5% | 23 | 2 | . | -1.4
O=C1c2ccccc2NC2(CCCCC2)N1N=C1CCCCC1 | -8% | -6 | -2 | -28 | 3.4
COc1ccc(O)c(/C=N/N2CCCCC2)c1 | . | . | -1 | . | -1.1
CC(C)C(c1nnnn1C1CCCCC1)N1CCN(C(=O)c2ccco2)CC1 (stereo not drawn) | . | . | 0 | . | -0.5
COc1ccc(-c2nc(N)n(S(=O)(=O)c3ccc(C)cc3)n2)cc1 | 7% | -1 | -5 | . | -0.7
Cc1c(NC(=O)CN2CCCC(C)C2)ccc2nsnc12 (stereo not drawn) | -3% | -4 | -10 | . | -1.6
COc1ccc(NC(=O)CN2C(=O)S/C(=C/c3cccn3-c3ccc(C(=O)O)cc3)C2=O)cc1 | . | . | -6 | . | -3.1
